Mtb bLac sens – beta-lactam sensitization of Mtb H37Rv. M. tuberculosis H37Rv growth with meropenem, percent inhibition; hits of this screen are not shown here. inhibition, % at 25 µM. 0.27% of 330,000 active. AID 434955;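 active means about 74% or more and at least 40 points above the plate without the antibiotic, then above 30% in a dose series; inconclusive means first-round hits that could not be retested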;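 further: growth measured after seven days incubation then overnight dye step; 0% = bacteria only wells and 100% = bacteria with antibiotic; twin plates without the antibiotic show which effects depend on it; some results filed as inactive read as strong as hits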
Arbovirus inh – blocks arbovirus infection; arbovirus infection cell-based antiviral screen; inhibition, % at 10 µM; 0.37% of 200,000 active;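 active means inhibition from about 30%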;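 further: bluetongue infection of BSR cells; cell survival read as ATP light after 72 h; 0% = infected wells without compound and 100% = uninfected wells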
Mtb growth – M. tuberculosis H37Rv growth inhibitors, H37Rv strain (AID 1626); M. tuberculosis H37Rv growth inhibition; higher % means a stronger effect; one-dose inhibition, % at 10 µM; IC50 in µM for titrated hits; 0.95% of 220,000 active;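 active means confirmed in a dose series; inconclusive means inhibition above 80% but not taken into the dose series; inactive means below 80% or under 30% at every dose of the series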;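 further: bacteria incubated seven days before Alamar blue readout; 0% = bacteria only wells and 100% = bacteria with antibiotic wells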
YopH inh – YopH (Yersinia) phosphatase inhibition; AID 898; fluorescence Ex485/Em525; 0.16% of 140,000 active; inhibition, %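 (about 10 µM by stock and volumes)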;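 active means inhibition of 50% or more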;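 further: controls were vehicle for no effect and minimum signal wells for full effect; inactives centre near -20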
RecA intein inh – Mtb RecA intein splicing inhibition; cell-free RecA intein splicing, fluorescence; 0.75% of 290,000 active; inhibition, %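 (about 9 µM by stock and volumes)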; P9WHJ3; in the data active means inhibition above about 30%; inconclusive means no clear call, values can overlap the other calls;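 further: 0% = vehicle wells and 100% = reference inhibitor control wells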
Target sequence (P9WHJ3 whole entry, looked up): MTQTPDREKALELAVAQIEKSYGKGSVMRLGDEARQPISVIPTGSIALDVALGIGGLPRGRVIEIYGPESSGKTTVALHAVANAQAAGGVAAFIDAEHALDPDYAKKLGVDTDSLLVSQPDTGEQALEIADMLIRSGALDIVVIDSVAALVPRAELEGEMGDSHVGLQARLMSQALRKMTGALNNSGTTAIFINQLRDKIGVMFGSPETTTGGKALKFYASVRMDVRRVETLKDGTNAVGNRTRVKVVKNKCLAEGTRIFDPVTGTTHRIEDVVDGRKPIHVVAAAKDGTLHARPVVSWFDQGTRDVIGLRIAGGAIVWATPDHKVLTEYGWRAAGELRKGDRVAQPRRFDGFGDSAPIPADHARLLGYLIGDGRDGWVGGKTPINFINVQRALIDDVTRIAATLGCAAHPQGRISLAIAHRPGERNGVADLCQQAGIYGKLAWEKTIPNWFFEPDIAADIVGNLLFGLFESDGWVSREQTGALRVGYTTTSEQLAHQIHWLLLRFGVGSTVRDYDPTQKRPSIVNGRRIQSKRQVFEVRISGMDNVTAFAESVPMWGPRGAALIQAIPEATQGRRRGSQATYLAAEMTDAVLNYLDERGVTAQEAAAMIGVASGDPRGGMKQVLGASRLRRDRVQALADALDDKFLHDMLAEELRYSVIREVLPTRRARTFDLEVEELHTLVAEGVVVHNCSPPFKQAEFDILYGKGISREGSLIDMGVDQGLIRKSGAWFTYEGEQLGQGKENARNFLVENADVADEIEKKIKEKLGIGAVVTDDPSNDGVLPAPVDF
Arbovirus inh repeat – also measured in Arbovirus inh; calls as there; inhibition, %; measured here: 10K subset replicate screen; many hits read low in the repeat;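 first of two repeat runs on a subset; 0% = infected and 100% = uninfected wells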
* hit, by the source's call; ? = inconclusive; · = not tested or not shown. Some of the compounds tested. The share of hits here may be higher or lower than overall.

SMILES	Mtb bLac sens	Arbovirus inh	Mtb growth	YopH inh	RecA intein inh	others
O=C(CNC(=O)C1CCCCC1)OCc1cc(=O)oc2ccc3ccccc3c12	3	3	-1%	-29	-1.3
Cn1nc(C(=O)NCC2CCCO2)c2ccccc2c1=O (configuration not stated)	-10	7	-6%	-31	1.7
CC(=NCc1ccco1)c1c(O)n(C2CCCCC2)c(=O)[nH]c1=O	-16	21	7%	-28	2.5
CC(C)(C)C1CCC(OC(=O)c2ccncc2)CC1 (configuration not stated)	2	-1	4%	-35	8.5
COc1ccc(Cl)cc1N(CC(=O)Nc1ccccc1C(=O)N1CCOCC1)S(C)(=O)=O	-15	·	·	·	-0.3
COc1ccc(C(=O)NCc2nnc(SCC(=O)Nc3nc4ccc(C)cc4s3)o2)cc1OC	-1	-13	-3%	-32	1.7
O=C(N/N=C/C=C/c1ccccc1)c1n[nH]c2c1CCC2	11	-23	·	-7	-0.9
Cc1ccc2nc(SCC(=O)Nc3ccccc3F)nc(=O)n2c1	-8	·	·	·	-1.3
O=c1[nH]c2ccccc2nc1C(Cl)c1ccccc1 (configuration not stated)	0	6	-3%	4	2.2
CN(C)S(=O)(=O)N(CC(=O)Nc1ccccc1C(F)(F)F)c1ccccc1	·	5	0%	-30	·
CCOC(=O)CCCSc1nnc(CCCCCN2C(=O)c3cccc4cccc(c34)C2=O)o1	91	2	5%	-34	0.7
Cc1cc2c(C)nc(N/N=C/c3ccccc3)nc2o1	-6	2	2%	-7	-4.4
O=C(CCl)Nc1ccccc1Sc1ccc(Cl)cc1	94	-21	16%	-8	23
Cc1cc(SCC(=O)Nc2ccc(O)cc2)n2nc(C)c(-c3ccccc3)c2n1	-1	·	-3%	·	1.2
Cc1ccc(N(C(C)C(=O)Nc2cccc(N(C)S(C)(=O)=O)c2)S(C)(=O)=O)cc1 (configuration not stated)	-3	2	4%	·	-2.0
Cc1ccc(-c2nc(CS(=O)CC(=O)NC3CC3)c(C)o2)cc1 (configuration not stated)	7	·	·	·	0.3
O=C(NCCc1nc(-c2ccccc2Cl)no1)c1ccccc1	-20	·	-3%	·	0.7
Cc1cccc(C)c1N(CC(O)Cn1c2ccccc2c2ccccc21)S(C)(=O)=O (configuration not stated)	-2	-37	-8%	-27	3.9
COC(=O)c1ccc(C(=O)OC)c(NC(=O)COC(=O)c2ccc(OC)c(OC)c2OC)c1	-5	0	-8%	-34	-0.7
CN(C)S(=O)(=O)c1ccc(C(=O)Nc2nc(-c3ccccc3)c(C(=O)c3ccccc3)s2)cc1	1	4	9%	-19	2.9
COc1cc(NC(=O)Cn2cnc(S(=O)(=O)N3CCCCC3)c2)cc(OC)c1OC	-4	·	·	·	-1.0
Cc1ccc(C(=O)NCCNC(=O)c2ccc(F)cc2)cn1	1	·	·	·	0.8
CCCn1c(NC(=O)c2ccco2)nc2ccccc21	96	-16	5.9µM*	-40	2.6
O=[N+]([O-])c1ccc(Cl)c(CN2CCC(O)CC2)c1	-2	4	2%	-19	-0.7
CN(C)c1nc(N(C)C)nc(N(C#N)CCOc2ccccc2)n1	65	3	8%	6	0.6
COc1ccc(NC(=O)[C@@H](NC(N)=O)C(C)C)cc1Cl	2	0	1%	·	·
Cn1c(CCNC(=O)c2ccccc2)nc2cc(NC(=O)C3CCCCC3)ccc21	-3	-2	-9%	-23	-0.9
CCOC(=O)N1CCN(S(=O)(=O)c2cc(Br)cc3c2N(C(=O)C2CC2)CC3)CC1	-12	5	·	-45	-7.7	Arbovirus inh repeat=8
Cn1c(CNC(=O)CNC(=O)c2ccccc2F)cc(=O)n(C)c1=O	-11	·	·	·	-0.6
CCn1cc(C(=O)OCc2cccc(Br)c2)c(=O)c2ccc(C)nc21	-6	3	-2%	-17	4.8
O=S(=O)(NC1CC1)c1cccc(S(=O)(=O)N2CCCC2)c1	-2	0	-4%	-59	1.6
COc1ccc(S(=O)(=O)N2CCC(C(=O)Nc3ccccc3C)CC2)c2cccnc12	3	-2	0%	7	-4.4
Cc1ccc(NC(=O)CN(C)CC(=O)Nc2ccccc2-c2ccccc2)cc1	17	5	3%	·	0.2
CCS(=O)(=O)c1ccc(NC(=O)c2ccccc2Cl)c(O)c1	-9	0	-8%	-13	-1.0
O=C(c1cc2cc(Cl)cc(Cl)c2oc1=O)N1CCOCC1	9	9	-1%	-8	-0.4
CC(C)c1ccc2oc(=O)cc(CN3CCN(c4ccccc4)CC3)c2c1	-5	7	11%	-53	1.2
N=c1n(CCO)c2ccccc2n1CCOc1ccccc1	-1	13	7%	-40	0.5
O=C(CCCN1C(=O)/C(=C/c2ccccc2Cl)SC1=S)Nc1ccccn1	78	4	?	-22	3.8
COc1ccc(NC(=O)Cn2nc([N+](=O)[O-])c(Cl)c2C)cc1OC	-9	·	-5%	·	1.6
COc1ccccc1NC(=O)COC(=O)/C=C/c1ccc2c(c1)OCO2	22	0	43%	·	-0.1
Cc1cccc(N2C(=O)CC(N3CCOCC3)C2=O)c1 (configuration not stated)	0	2	-3%	-37	-3.3
Cc1ccccc1NC(=O)C1CCCN1C(=O)NC1CCCCC1 (configuration not stated)	-2	6	3%	-5	-1.3
COc1ccc(-c2nc(C3CCCCC3)no2)cc1OC	94	35*	24%	-31	5.1
O=C(CCNS(=O)(=O)c1ccccc1C(F)(F)F)NCc1ccc2c(c1)OCO2	-12	1	-5%	1	1.1
CCCCCC(=O)NNC(=O)c1ccc(F)cc1	-7	4	-10%	-29	2.9
COC(=O)[C@@H]1C[C@@]2(Br)c3ccccc3N(S(=O)(=O)c3ccccc3)[C@H]2N1C(=O)OC	-6	·	12%	·	0.8
CC(C)C(=O)Nc1cc(C(F)(F)F)ccc1N1CCOCC1	13	2	3%	-27	0.8
CC(=O)c1ccc(N2CCN(C(=O)Cn3c(=S)[nH]c4ncccc4c3=O)CC2)cc1	-15	11	-2%	·	1.2
Cc1ccc(C)c(OCCn2cc(/C=C(\C#N)C(=O)NCc3cccs3)c3ccccc32)c1	-3	-2	-4%	-11	-6.8
COC(=O)C1C/C(=N\NS(=O)(=O)c2ccc(C)cc2)c2ccccc2C1 (configuration not stated)	5	·	·	·	0.3
CCOc1cc(C2/C(=C(/O)c3ccc(S(=O)(=O)N4CCCCC4)cc3)C(=O)C(=O)N2CCOC)ccc1O (configuration not stated)	-7	·	·	·	-3.4
O=[N+]([O-])c1cccc(-c2ccc(/C=N/NC(=S)NCc3ccco3)o2)c1	0	·	-2%	·	-0.8
CC(C)(C)CN1CCN(Cc2c[nH]c3ccccc23)CC1CCO (configuration not stated)	-5	·	·	·	-0.1
COc1ccc(N(CC(=O)NCc2ccco2)S(C)(=O)=O)cc1	5	2	-11%	-22	-3.8
Cc1c(C(c2cccc([N+](=O)[O-])c2O)c2c(C)n(C)n(-c3ccccc3)c2=O)c(=O)n(-c2ccccc2)n1C	?	3	-9%	-15	-4.1
CCOC(=O)c1c(NC(=O)Cc2cccs2)sc2c1CCCC2	-12	-2	-11%	-15	-1.8
Cc1nc(CNS(=O)(=O)c2cccs2)cs1	-7	0	5%	·	1.2
COc1ccc(/C(O)=C2\C(=O)C(=O)N(CCN3CCOCC3)C2c2ccccc2OC)cc1 (configuration not stated)	·	-6	5%	-20	·
O=C(CCC(=O)N(CC(=O)NC1CCCCC1)c1ccc2c(c1)OCO2)Nc1ccccn1	-10	-20	-2%	-51	-0.3
COc1cc(CC(=O)Nc2sccc2C(N)=O)cc(OC)c1OC	23	2	3%	-23	2.3

New compounds follow
SMILES	Mtb bLac sens	Arbovirus inh	Mtb growth	YopH inh	RecA intein inh	others
COc1ccc(CNC(=O)C2CCCN2S(=O)(=O)c2ccc(F)cc2)cc1 (configuration not stated)	-3	-4	-1%	·	-0.4
O=C(CNC(=O)c1ccccc1)Nc1ccsc1C(=O)O	-1	-1	1%	·	-0.1
COc1ccc(C(=O)OCC(=O)NC(C)(C)C)cc1[N+](=O)[O-]	3	3	-1%	-19	-5.1
CCc1cc2ccc(C)c(C)c2nc1SCC(=O)NNC(=O)c1ccco1	-1	·	·	·	6.0
O=C(COC(=O)c1ccc2c(c1)OCO2)Nc1ncc(Cl)cc1Cl	-3	3	0%	-22	3.7
COc1cccc(Nc2nc(N)nc(C(F)(F)F)n2)c1	-7	1	-1%	-20	2.5
O=C(c1cc(Cl)nc2ccccc12)N(Cc1nnc(-c2ccc(Cl)cc2)o1)C1CC1	-1	·	·	·	4.3
CCOC1=C/C(=C/c2c(N)n3oc(C)cc3nc2=O)C=CC1=O	3	4	-1%	·	38*
CN(C)CC1CCCCC1OC(=O)c1ccc(Br)cc1 (configuration not stated)	-7	12	0%	·	-0.8
O=C(Cn1ccc2cc(S(=O)(=O)N3CCCC3)ccc21)NCCc1ccccc1	-10	·	·	·	-0.7
CC(=O)N1CCN(c2ccc(NC(=O)c3ccc(C)cc3)cc2)CC1	-2	-2	-6%	-27	-3.3
CC(C)(C)c1ccc(C(=O)O)c(C(=O)c2ccc(C(=O)O)cc2)c1	-3	·	-8%	·	1.8
Cc1cc(N2CCOCC2)nc(NCc2ccccc2)n1	4	2	4%	-38	0.0	Arbovirus inh repeat=8
CCS(=O)(=O)N1N=C(c2cccs2)CC1c1cc2cc(C)ccc2nc1Cl (configuration not stated)	4	·	3%	·	0.5
O=C(O)Cc1ccc(-c2ccccc2)cc1	0	0	·	-32	3.4
O=S(=O)(c1ccccc1)N(CC(O)CN1CCOCC1)c1ccccc1 (configuration not stated)	1	·	·	·	1.1
COc1ccc(-n2nnc3c(SC(C(C)=O)C(=O)N(C)C)ncnc32)cc1 (configuration not stated)	8	·	·	·	25
O=[N+]([O-])c1ccc(/C=N\N2CCN(c3ccc(Cl)cc3)CC2)cc1	1	13	6%	-37	-0.7
CCOC(=O)C1=C(C)N=C2SC(C)C(=O)N2C1c1ccc(OC(C)=O)c(OCC)c1 (configuration not stated)	-8	2	·	-21	-1.9
CC(=O)c1ccc(NC(=O)Nc2ccc(S(=O)(=O)N3CCCC3)cc2)cc1	4	·	·	·	-1.2

Structural class, the entries above containing a cyano group
SMILES	Mtb bLac sens	Arbovirus inh	Mtb growth	YopH inh	RecA intein inh	others
CN(C)c1nc(N(C)C)nc(N(C#N)CCOc2ccccc2)n1	65	3	8%	6	0.6
Cc1ccc(C)c(OCCn2cc(/C=C(\C#N)C(=O)NCc3cccs3)c3ccccc32)c1	-3	-2	-4%	-11	-6.8

Next section:
SMILES	Mtb bLac sens	Arbovirus inh	Mtb growth	YopH inh	RecA intein inh	others
CCN(c1ccccc1)S(=O)(=O)c1ccc(OCC(=O)Nc2cc(C)on2)cc1	1	7	5%	18	0.8
O=C(NCCc1ccncc1)Nc1ccc(F)cc1	-8	·	-2%	·	-3.3
COc1ccc(OC)c(NC(=O)C2CCN(S(=O)(=O)c3cccs3)CC2)c1	-2	-5	-2%	11	0.1
Cc1ccccc1-n1nnnc1SCC(N)=O	-11	-1	-4%	-7	2.5
CCn1c(SCC(=O)Nc2cccc(OC)c2)nc2c(c1=O)SCC2	-8	·	·	·	-0.5
COc1ccccc1N1CCN(C(=O)CSc2nc3ccccc3[nH]2)CC1	-7	4	-10%	-5	2.0
O=C(CSc1nnnn1-c1ccc(Cl)cc1)NNC(=O)c1ccc([N+](=O)[O-])cc1	0	0	-7%	-22	-0.6
CCOC(=O)[C@]1(C#N)[C@@H]2C=CC(C(C)=O)=CN2[C@@H](C(N)=O)[C@@H]1c1ccsc1	2	13	0%	-32	0.7
C=CCc1ccc(OCCOCCOc2ccc(C)cc2[N+](=O)[O-])c(OC)c1	11	11	9%	-22	2.7
CCOC(=O)CSC1=C(C#N)C(c2ccc(OC)cc2)C2=C(CC(C)(C)CC2=O)N1 (configuration not stated)	12	1	13%	2	4.5
COc1ccc(C(=O)NC2CCCN(Cc3ccc(Cl)cc3)C2)c(OC)c1 (configuration not stated)	68	·	·	·	-1.5
CCSc1ccc([C@@H]2[C@@H]3C(=O)N(CC)C(=O)[C@@H]3[C@]3(C(=O)OC)CCCN23)cc1	-8	·	·	·	-2.4
CC(C)c1ccc(NCCC(=O)c2cccs2)cc1	99	-10	?	-13	2.3
CCC(C)(C)NC(=O)CN(C(=O)CCC(=O)Nc1cc(C)ccn1)c1ccc2c(c1)OCCO2	-4	0	-7%	·	1.2
O=C(COC(=O)c1ccncc1)c1ccc(Br)cc1	-2	5	0%	·	-0.4
CCOc1ccc(Cl)cc1/C=N/O	11	-3	-7%	-46	-1.1

Copied from the results shown, three compounds:
SMILES	Mtb bLac sens	Arbovirus inh	Mtb growth	YopH inh	RecA intein inh	others
CCC(C)(C)NC(=O)CN(C(=O)CCC(=O)Nc1cc(C)ccn1)c1ccc2c(c1)OCCO2	-4	0	-7%	·	1.2
O=C(COC(=O)c1ccncc1)c1ccc(Br)cc1	-2	5	0%	·	-0.4
CCOc1ccc(Cl)cc1/C=N/O	11	-3	-7%	-46	-1.1
